# Bioassay records as filed in PubChem BioAssay.
# Mtb betalactam = beta-lactam sensitization of Mtb H37Rv, H37Rv; M. tuberculosis H37Rv growth with meropenem, percent inhibition; hits of this screen are not shown here; inhibition, % at 25 µM; hit rate 0.27% among 330,000;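 active = about 74% or more and at least 40 points above the plate without the antibiotic, then above 30% in a dose series; inconclusive = first-round hits that could not be retested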;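 also: growth measured after seven days incubation then overnight dye step; 0% = bacteria only wells and 100% = bacteria with antibiotic; twin plates without the antibiotic show which effects depend on it; some results filed as inactive read as strong as hits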
# Mtb H37Rv = M. tuberculosis H37Rv growth inhibitors, H37Rv strain (AID 1626); one-dose inhibition, % at 10 µM; IC50 in µM for titrated hits; M. tuberculosis H37Rv growth inhibition; higher % means a stronger effect; hit rate 0.95% among 220,000;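 active = confirmed in a dose series; inconclusive = inhibition above 80% but not taken into the dose series; inactive = below 80% or under 30% at every dose of the series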;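 also: bacteria incubated seven days before Alamar blue readout; 0% = bacteria only wells and 100% = bacteria with antibiotic wells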
# Arbovirus anti = antivirals against arbovirus infection, primary screen, cell-based, full library, 10K replicate subset | AID 1251, 2008 | inhibition, % at 10 µM | arbovirus infection cell-based antiviral screen | hit rate 0.37% among 200,000;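 active = inhibition from about 30%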;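 also: bluetongue infection of BSR cells; cell survival read as ATP light after 72 h; 0% = infected wells without compound and 100% = uninfected wells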
# YopH inh = YopH tyrosine phosphatase inhibitors, primary screen, biochemical, fluorescence Ex485/Em525; YopH tyrosine phosphatase [Yersinia enterocolitica]; inhibition, %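 (about 10 µM by stock and volumes)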; AID 898, 2007; hit rate 0.16% among 140,000;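 active = inhibition of 50% or more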;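 also: controls were vehicle for no effect and minimum signal wells for full effect; inactives centre near -20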
# RecA intein inh = Mtb RecA intein splicing inhibitors, primary screen, biochemical, fluorescence, HTS; cell-free RecA intein splicing; inhibition, %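 (about 9 µM by stock and volumes)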; hit rate 0.75% among 290,000; AID 2221, 2009; in the data active = inhibition above about 30%; inconclusive = no clear call, values can overlap the other calls;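 also: 0% = vehicle wells and 100% = reference inhibitor control wells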
# Target sequence (P9WHJ3 whole entry, looked up): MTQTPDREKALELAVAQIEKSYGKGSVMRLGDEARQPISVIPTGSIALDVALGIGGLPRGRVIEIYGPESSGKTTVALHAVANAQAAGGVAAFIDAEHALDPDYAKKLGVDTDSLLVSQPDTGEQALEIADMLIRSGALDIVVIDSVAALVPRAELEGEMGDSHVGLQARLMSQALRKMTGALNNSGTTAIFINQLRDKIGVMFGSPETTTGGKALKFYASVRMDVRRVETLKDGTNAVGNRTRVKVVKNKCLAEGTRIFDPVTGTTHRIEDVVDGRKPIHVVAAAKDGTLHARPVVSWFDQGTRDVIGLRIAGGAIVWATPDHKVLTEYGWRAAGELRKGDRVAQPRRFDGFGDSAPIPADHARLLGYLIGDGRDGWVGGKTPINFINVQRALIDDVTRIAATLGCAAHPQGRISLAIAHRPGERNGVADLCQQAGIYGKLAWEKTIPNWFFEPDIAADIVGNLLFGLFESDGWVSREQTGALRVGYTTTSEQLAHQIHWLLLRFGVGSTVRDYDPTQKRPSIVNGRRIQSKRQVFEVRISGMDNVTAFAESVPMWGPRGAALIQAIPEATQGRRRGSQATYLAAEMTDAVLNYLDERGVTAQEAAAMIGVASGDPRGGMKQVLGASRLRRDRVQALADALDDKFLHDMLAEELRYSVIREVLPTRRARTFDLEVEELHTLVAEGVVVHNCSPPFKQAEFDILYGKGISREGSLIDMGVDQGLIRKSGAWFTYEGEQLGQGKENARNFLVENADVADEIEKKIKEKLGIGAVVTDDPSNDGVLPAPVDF
# Arbovirus anti repeat = further read-out of Arbovirus anti, marked with its call; inhibition, %; measured here: 10K subset replicate screen; many hits read low in the repeat;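 first of two repeat runs on a subset; 0% = infected and 100% = uninfected wells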
# Numbers without * were called inactive; i = inactive; ? = inconclusive; nt = not tested or not shown. These rows are one share of the data (hit frequency here may not be typical).
# The first two records as a preview:
SMILES,Mtb betalactam,Mtb H37Rv,Arbovirus anti,YopH inh,RecA intein inh,others
Cc1cc(C(=O)NN=C2C3CC4CC(C3)CC2C4)c2ccccc2n1,-3,-9%,5,1,nt,
CC(CC1C(C#N)=C(N)OC2=C1C(=O)CCC2)c1ccccc1 (stereo unspecified),3,-3%,6,-18,1.4,Arbovirus anti repeat=4

# The listing, from the first entry:
SMILES,Mtb betalactam,Mtb H37Rv,Arbovirus anti,YopH inh,RecA intein inh,others
Cc1cc(C(=O)NN=C2C3CC4CC(C3)CC2C4)c2ccccc2n1,-3,-9%,5,1,nt,
CC(CC1C(C#N)=C(N)OC2=C1C(=O)CCC2)c1ccccc1 (stereo unspecified),3,-3%,6,-18,1.4,Arbovirus anti repeat=4
CCCCNC(=O)c1ccc2c(c1)N(CC)C(=O)CS2,nt,1%,5,-25,-1.4,
CC(NC(=O)c1ccco1)c1ccc2c(c1)OCO2 (stereo unspecified),-13,nt,nt,nt,-3.5,
N#Cc1c(N)n(-c2cccc(O)c2)c2nc3ccccc3nc12,100,?,nt,nt,-217,
Cc1csc(NC(=O)c2ccc(-c3ccc(Cl)cc3Cl)o2)n1,5,15%,-10,-46,-1.5,
CC(NC(=O)COc1ccc(N(C)S(=O)(=O)c2ccccc2)cc1)c1ccccc1 (stereo unspecified),2,14%,-1,nt,1.9,
COc1ccc(N2CCN(CC(=O)NC(=O)NC(C)(C)C)CC2)cc1,1,9%,17,nt,-8.1,
CCOc1ccc(C(=O)N2CCCC2C(=O)O)cc1 (stereo unspecified),8,-8%,9,-30,0.1,
CCOc1ccc2nc(NC(=O)Nc3ccccc3)sc2c1,?,1%,13,20,-2.5,
Cc1ccc(NC(=O)COC(=O)C2=COCCO2)c([N+](=O)[O-])c1,93,6.3µM*,1,nt,-0.5,
C=CCn1c(O)c(/C=C2\C=NN=C2c2ccccc2)sc1=S,89,5%,nt,nt,5.0,
Cc1ccc2c(c1)nnn2C1CCN(S(C)(=O)=O)CC1,8,2%,2,-47,2.1,
CCN(CC)CCNc1nc(-c2ccccc2)nnc1C(F)(F)F,-5,0%,-1,-16,1.3,
COCCCN1Cc2cccc(C(=O)O)c2C1=O,3,-4%,9,-47,0.6,Arbovirus anti repeat=-1
Cc1ccc(S(=O)(=O)NCc2c(-c3ccccc3)noc2C)cc1,3,-5%,nt,nt,2.2,
COc1ccc(/C=C/C(=O)Nc2nc(C)c(C(=O)N(C)C)s2)cc1,-3,-4%,1,-27,3.4,
CCCOc1ccc(/C=C/C(=O)O)cc1OC,-3,-2%,11,nt,1.0,
COc1ccccc1OCC(=O)NCCNC(=O)COc1ccccc1OC,0,-1%,4,-47,-0.5,
O=C(CCc1ccccc1)NC1CCCc2ccccc21 (stereo unspecified),0,nt,nt,nt,-0.2,
Cn1c2ccccc2c2c(C(=O)N3CCC4(CC3)OCCO4)cn(C3CCCCC3)c(=O)c21,-2,-4%,-14,-5,0.6,
Cc1cc(C)c(C)c(S(=O)(=O)Nc2ccc(C(=O)N3CCCC3)cc2)c1C,-9,nt,nt,nt,1.2,
CCC(C)(C)n1nnnc1C(c1ccncc1)N1CCC(Cc2ccccc2)CC1 (stereo unspecified),43,-4%,15,8,0.5,
O=C(Nc1ccccc1C(F)(F)F)c1ccsc1,0,nt,nt,nt,1.7,
CN(CC(=O)Nc1c(Cl)cccc1Cl)C(=O)c1cc2ccccc2cc1O,-12,nt,nt,nt,-2.5,
Cc1cc(=O)oc(C)c1C(=O)NCCC(C)C,-3,-2%,1,-15,0.5,
Cc1ccc(-c2c[n+](=O)c3c(n2[O-])CCC3)cc1,-3,-12%,nt,nt,4.5,
Cc1cc(=O)[nH]c2c1c(-c1ccccc1)nn2C,-1,-8%,nt,nt,2.7,
COC(=O)COc1ccc(C2Nc3c(Cl)ccc(C(=O)O)c3C3C=CCC32)cc1 (stereo unspecified),-5,1%,4,nt,1.9,
CCOC(=O)C1=C(COC(=O)c2cc(OC)c(OC)c(OC)c2)NC(=O)NC1C (stereo unspecified),3,nt,nt,nt,-1.2,
CCOc1ccc(S(=O)(=O)NC(C)C(=O)NC2CCCC2)cc1 (stereo unspecified),-4,nt,nt,nt,-2.1,
COCCn1nnnc1C(c1ccc(O)c(OC)c1)N1CCc2ccccc2C1 (stereo unspecified),7,-6%,2,-17,-2.7,
OCCC1CN(Cc2cccn2-c2ncccn2)CCN1CCc1ccccc1 (stereo unspecified),1,7%,5,nt,-2.0,
S=C(NCCc1ccncc1)Nc1ccccc1,-11,-2%,4,nt,-0.2,
O=C(CCC(=O)NNC(=O)c1ccc([N+](=O)[O-])cc1)NCc1ccccc1,-4,-1%,5,nt,0.3,
COc1cc(/C=N/N2CCN(c3ccc(Cl)cc3)CC2)cc(OC)c1OC(C)=O,3,nt,nt,nt,-4.3,
O=C(NC(=S)NCCN1CCOCC1)c1ccccc1Br,4,-8%,5,-36,-2.2,
O=S(=O)(NCC1CCN(S(=O)(=O)c2ccccc2)CC1)c1ccccc1,0,0%,4,-25,-3.3,
c1ccc(-c2cccs2)nc1,-5,-6%,nt,nt,2.7,
CO/N=C/C(=N\Nc1ccc(C)cc1)C(=O)c1ccc(OC)cc1,0,2%,-26,-26,-2.1,

# Already shown: an excerpt of the list.
SMILES,Mtb betalactam,Mtb H37Rv,Arbovirus anti,YopH inh,RecA intein inh,others
O=C(NC(=S)NCCN1CCOCC1)c1ccccc1Br,4,-8%,5,-36,-2.2,
O=S(=O)(NCC1CCN(S(=O)(=O)c2ccccc2)CC1)c1ccccc1,0,0%,4,-25,-3.3,

# Following part
SMILES,Mtb betalactam,Mtb H37Rv,Arbovirus anti,YopH inh,RecA intein inh,others
CCCc1[nH]nc2c1C(c1ccc(Br)s1)C(C#N)=C(N)O2 (stereo unspecified),6,7%,-7,4,56*,
O=C(CSc1nnnn1-c1ccccc1)NCc1ccco1,1,-9%,-4,-14,2.0,
Cc1ccc2cccc(NC(=S)NC(=O)c3ccccc3)c2n1,93,?,-5,-15,7.3,
Cn1nc(C(F)(F)F)c(/C=N/OCc2c(Cl)cccc2Cl)c1Cl,2,-2%,-5,-32,4.3,
O=c1ccc2cc3c4c(c2o1)CCCN4CCC3,2,4%,-14,nt,i,
CCCc1[nH]n(-c2nc3ccccc3s2)c(=O)c1C=NCC(C)C,69,9%,3,-13,-1.9,
CC(OC(=O)c1ccc2c(c1)S(=O)(=O)c1ccccc1C2=O)C(N)=O (stereo unspecified),-5,nt,nt,nt,-2.7,
COc1ccc(NC(=S)NC(=O)CC(C)C)c(OC)c1,-4,-1%,-7,nt,0.9,
NC(=O)c1cc2nc(-c3ccco3)cc(C(F)(F)F)n2n1,1,-4%,4,-17,nt,
CCCCN(CCCC)CC(O)CN(c1cc([N+](=O)[O-])ccc1OC)S(=O)(=O)c1ccccc1 (stereo unspecified),3,5%,8,-11,-2.5,
CCCCOc1ccc(CSc2ncn[nH]2)cc1,-2,4%,26,-16,0.2,
CCS(=O)(=O)N1CCC(C(=O)NCCCOC)CC1,3,1%,3,-19,-2.9,
Cc1ccc(N2CC(C(=O)NCCS(=O)(=O)N3CCN(c4ccccc4)CC3)CC2=O)cc1C (stereo unspecified),0,nt,nt,nt,-1.1,
CN(C)S(=O)(=O)c1ccc(NC(=O)CCNC(=O)c2ccc([N+](=O)[O-])cc2)cc1,2,-5%,4,nt,-1.1,
COc1ccc(C(=O)COC(=O)CNC(=O)c2cc(OC)cc(OC)c2)cc1,7,-3%,2,-8,0.5,
Cc1ccc2ccc[n+](Cc3ccccc3)c2c1,-1,nt,nt,nt,-3.4,
COc1ccc(N2C(=O)CC(SCc3ccc(Cl)cc3)C2=O)cc1 (stereo unspecified),-7,-4%,nt,nt,-0.1,
O=C(NC1CCCCC1)N(Cc1cc2cc3c(cc2[nH]c1=O)OCCO3)C1CCCCC1,42,11%,-16,-9,nt,
COc1cc(NS(=O)(=O)c2ccc(NC(=O)c3ccc(S(=O)(=O)N4CCCC4)cc3)cc2)ncn1,-9,-4%,-1,nt,2.9,
CC(=O)C1=C(C)N(CC2CC2)C(=O)N[C@H]1c1ccccc1,-6,-14%,7,-22,-2.2,
CCOc1ccc(S(=O)(=O)N2CCN(C(=O)c3ccccc3Cc3ccccc3)CC2)cc1,5,nt,nt,nt,-2.2,
O=c1c2ccccc2nc2n1CCCCC2,-6,-8%,9,-45,1.7,
COc1ccc(CNCC(O)COc2ccc(C(C)(C)c3ccccc3)cc2)cc1 (stereo unspecified),99,nt,nt,nt,1.1,
COc1ccc(CCNc2nc(N3CCOCC3)nc(N3CCOCC3)n2)cc1OC,-8,8%,4,-21,1.0,
O=C(NCCNC(=O)c1cnccn1)c1ccc(Cl)cc1,5,nt,nt,nt,-0.1,
O=C(OCCN=C1NS(=O)(=O)c2ccccc21)c1ccco1,-5,1%,4,nt,1.0,
Cc1ccccc1CN(c1ccc(C(=O)NCc2cccnc2)cc1)S(C)(=O)=O,2,-14%,1,nt,-3.0,
COc1ccc(OCC(O)CN(CC(O)COc2ccc(OC)cc2)c2cccc(O)c2)cc1 (stereo unspecified),-4,nt,nt,nt,-9.0,
CC(C)(C)n1nc2c(c1NC(=O)COc1ccc(F)cc1)CS(=O)(=O)C2,-12,nt,nt,nt,1.5,
O=C(NC(c1ccccc1)c1ccccc1)c1ccc(=O)[nH]n1,0,2%,1,nt,-1.5,
CCOC(=O)c1ccccc1NC(=O)CSc1nnc(Cc2cccn2C)n1-c1ccc(C)cc1,-6,-1%,-9,-46,1.1,
Cc1ccc(NC(=O)C2CC2c2ccccc2)c([N+](=O)[O-])c1 (stereo unspecified),-2,nt,nt,nt,5.3,
CCOc1ccc(OCCOc2ccc(/C=C/C(=O)O)cc2OCC)cc1,39,nt,nt,nt,2.9,
Cc1ccc(C(=O)NCCN2C3=NC[C@H](C)N3C[C@H]2Cc2ccc(O)cc2)cc1Br,-10,-7%,4,nt,-1.6,
CC1CN(C(=O)c2ccc(S(=O)(=O)Nc3ccccc3F)cc2)CC(C)O1 (stereo unspecified),-6,nt,nt,nt,1.3,
CCN(CC)S(=O)(=O)c1ccc(OC)c(NC(=O)Cn2cnc3c2c(=O)n(C)c(=O)n3C)c1,2,-1%,-8,nt,-0.5,
O=C(NCC(c1ccco1)N1CCCCC1)c1ccc2c(c1)S(=O)(=O)c1ccccc1C2=O (stereo unspecified),3,3%,-3,nt,nt,
CN(C)c1ccc(/C=N/NC2=NS(=O)(=O)c3ccccc32)cc1,3,nt,nt,nt,-2.0,
CCCSc1ccc(C(=O)Nc2ccc(Cl)cc2)cn1,11,28µM*,-10,nt,-0.4,
CC(C)(C)OC(=O)COc1cc(OCC(=O)OC(C)(C)C)c2c(=O)cc(-c3ccccc3)oc2c1,3,?,-34,-16,7.2,
COc1ccc(/C=C/C(=O)NCC(=O)n2nc(C)cc2C)cc1,-5,-8%,nt,nt,1.6,
CCC(C(=O)OC)n1cnc2c(oc3ccccc32)c1=O (stereo unspecified),-2,nt,nt,nt,2.3,
CC1CCN(S(=O)(=O)c2ccc(NC(=O)CSc3ncccc3C(=O)O)cc2)CC1,-4,-5%,-1,-15,-0.2,
CCOC(=O)Cc1csc(NC(=O)c2sc3nc4ccc(CC)cc4cc3c2N)n1,9,6%,-4,-35,4.0,
O=C(NCC(c1ccco1)N1CCOCC1)c1ccc([N+](=O)[O-])cc1 (stereo unspecified),-7,-3%,0,nt,-2.9,
NC(=O)c1nsc(C(=O)N(c2ccccc2)C(C(=O)NCC2CCCO2)c2cccs2)c1N (stereo unspecified),-2,-10%,3,nt,0.0,
CCOc1ccc(C(=O)NCC(c2ccco2)N2CCOCC2)cc1 (stereo unspecified),-2,nt,nt,nt,-1.0,
COc1ccc(N2CCN(CCCn3c(=S)[nH]c4ccccc4c3=O)CC2)cc1,2,nt,nt,nt,-1.9,
CC1CCCC/C1=N/Nc1ccc([N+](=O)[O-])cc1[N+](=O)[O-] (stereo unspecified),6,-8%,10,3,6.8,
O=C(Cc1cccs1)N/N=C/c1ccccc1,-6,-2%,nt,nt,0.9,

# Ordered by length of the SMILES (largest number first): part of the list above.
SMILES,Mtb betalactam,Mtb H37Rv,Arbovirus anti,YopH inh,RecA intein inh,others
NC(=O)c1nsc(C(=O)N(c2ccccc2)C(C(=O)NCC2CCCO2)c2cccs2)c1N (stereo unspecified),-2,-10%,3,nt,0.0,
CC1CCN(S(=O)(=O)c2ccc(NC(=O)CSc3ncccc3C(=O)O)cc2)CC1,-4,-5%,-1,-15,-0.2,
CC1CCCC/C1=N/Nc1ccc([N+](=O)[O-])cc1[N+](=O)[O-] (stereo unspecified),6,-8%,10,3,6.8,
CCC(C(=O)OC)n1cnc2c(oc3ccccc32)c1=O (stereo unspecified),-2,nt,nt,nt,2.3,
O=C(Cc1cccs1)N/N=C/c1ccccc1,-6,-2%,nt,nt,0.9,
